Resorufin autofl: resorufin region autofluorescence; Compound fluorescence, resorufin region 547/598 nm, buffer; stronger effect = higher value; max dye-equivalent concentration, M; AID 588; 59,000 compounds, 0.04% hits; active = above 10 nM dye equivalent; inconclusive = 1 to 10 nM; inactive = 1 nM or less; a few of its hits are not listed in these tables; note: highest value over a series up to 38 µM
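Compounds in 100 mM Tris buffer, pH 8.0, incubated 15 min at room temperature, then read with 547 nm excitation and 598 nm emission filters. Fluorescence was converted to dye-equivalent concentration using an on-plate six-point resorufin standard curve.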
A488 autofl: A488 region autofluorescence; compound autofluorescence, A488 spectral region, dye equivalency; stronger effect = higher value; max dye equivalency, M; 59,000 compounds, 0.1% hits; active = above 10 nM dye equivalent; inconclusive = 1 to 10 nM; inactive = 1 nM or less; about half of its hits are not listed in these tables;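 note: highest value over a series up to 38 µM; compound alone in buffer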
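Compounds pin-transferred into 100 mM Tris buffer, pH 8.0, incubated 15 min at room temperature, then imaged with 480 nm excitation/540 nm emission filters. Fluorescence converted to Alexa 488 dye-equivalent concentration via an on-plate six-point A488 standard curve.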
A647 fluor: A647 region autofluorescence; max dye-equivalent concentration, M; 59,000 tested, under 10 active; Compound fluorescence, A647 channel (570/671 nm), Tris buffer; active means above 1 µM dye equivalent; inconclusive means 0.1 to 1 µM; inactive means 0.1 µM or less;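 note: values scaled relative to a standard on each plate; highest value over a series up to 38 µM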
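Tris 100 mM pH 8.0; cpd + A647 stds pin-transferred; 15 min RT; CCD imager, ex 570/em 671. Output = A647-equivalent conc. per cpd conc.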
AID923: qHTS Assay for Allosteric/Competitive Inhibitors of Caspase-1: Spectroscopic Profiling in AFC Spectral Region; compound fluorescence, AFC spectral region (405/520 nm); almost no hit is shown here; Potency, µM (top dose mostly 57.5 µM), for inactives: at the top dose fluorescence increase, hits mostly activators; AID 923, 2007; 75,000 compounds, 1.1% hits; active = well fitted activation curve with a large enough effect; inconclusive = small, poorly fitted or top-dose-only effect;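 note: potency is the fitted concentration of half-maximal effect; 0% is about no effect; scaled to a free AFC standard on each plate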
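Compound autofluorescence profiled at 405 nm ex/520 nm em during kinetic caspase 1 run (50 nM enzyme, 5 uM Ac-WEHD-AFC, HEPES pH 7.5, 10 mM DTT). Titration up to 57 uM; baseline from regression intercept, normalized to AFC standard curve.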
TSHR ag: agonists of human thyroid stimulating hormone receptor; Potency, µM (titrated, usually from 57.1 µM), without a hit: top-dose activation, usual class: activators; 73,000 compounds, 0.48% hits; HEK293-CNG-TSHR cells (CNG channel as cAMP sensor), membrane potential dye, cAMP; AID 926; P16473; active = well fitted activation curve of enough size with the parental cells flat; inconclusive = any curve in the parental cells; inactive = parental cells flat and receptor cells flat or falling; note: potency is the fitted concentration of half-maximal effect; % of control where 0% means no effect; weak receptor curves with flat parental cells got no call and are not listed
Target sequence (P16473 whole entry, looked up): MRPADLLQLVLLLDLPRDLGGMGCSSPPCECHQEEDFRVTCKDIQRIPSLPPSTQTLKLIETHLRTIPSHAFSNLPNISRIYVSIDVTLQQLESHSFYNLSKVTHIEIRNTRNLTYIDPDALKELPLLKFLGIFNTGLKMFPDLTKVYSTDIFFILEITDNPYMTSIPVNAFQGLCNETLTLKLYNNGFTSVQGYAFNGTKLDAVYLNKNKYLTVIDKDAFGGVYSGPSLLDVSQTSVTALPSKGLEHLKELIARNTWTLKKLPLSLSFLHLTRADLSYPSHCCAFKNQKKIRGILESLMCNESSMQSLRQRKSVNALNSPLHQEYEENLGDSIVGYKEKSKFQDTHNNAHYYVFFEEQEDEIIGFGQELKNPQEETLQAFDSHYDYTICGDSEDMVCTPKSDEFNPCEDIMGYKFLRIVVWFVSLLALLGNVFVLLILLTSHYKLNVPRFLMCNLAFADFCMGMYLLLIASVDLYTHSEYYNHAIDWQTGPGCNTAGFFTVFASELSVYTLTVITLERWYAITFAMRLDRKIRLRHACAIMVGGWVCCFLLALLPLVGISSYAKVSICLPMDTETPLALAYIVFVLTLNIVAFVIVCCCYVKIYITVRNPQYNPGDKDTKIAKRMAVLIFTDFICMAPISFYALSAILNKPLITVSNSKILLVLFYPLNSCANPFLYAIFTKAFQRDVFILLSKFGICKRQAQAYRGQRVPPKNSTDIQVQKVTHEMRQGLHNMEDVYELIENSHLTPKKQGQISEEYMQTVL
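HEK 293 cells stably expressing TSHR and a cAMP-gated CNG channel; parental CNG-only cells as counterscreen. Cells preloaded 60 min with membrane potential dye plus 100 uM RO 20-1724, then compound 30 min; fluorescence read at 590 nm.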
* hit, by the source's call; i = inactive; ? = inconclusive; . = not tested or not shown; [ ] = dose if it differs, or a comment. The list is partial, so the mix of outcomes need not match the whole.

Order of values – Resorufin autofl, TSHR ag, A488 autofl, A647 fluor, AID923
- Cc1cccc(CNc2nc(-c3ccc4c(c3)OCO4)nc3ccccc23)c1
    i, ?, i, 3.09e-08, -0.1%
- O=C(CSc1nnc(CN2CCOCC2)n1-c1ccccc1)N1CCc2ccccc21
    i, ?, i, 1.1e-09, -1.7%
- O=C(CSc1nnnn1-c1ccc(Cl)cc1)NC(=O)Nc1ccc2c(c1)OCCO2
    i, ., i, 6.6e-09, 0.6%
- CCOC(=O)N1CCN(C(=O)Nc2sc3nc4n(c(=O)c3c2C)CCC(C)CC4)CC1 (centres undefined)
    i, ?, i, 4.68e-08, 0.6%
- COc1cccc(C2NC(=O)NC(C)=C2C(=O)Nc2ccccc2C)c1 (centres undefined)
    ., 9.8%, ., ., 4.3%
- COc1cccc(C2=NOC(C(=O)NCc3ccc(F)cc3)C2)c1 (centres undefined)
    i, ?, i, 1.3e-09, -0.1%
- CC(C)c1ncc(C(O)c2cccc3ccccc23)n1C (centres undefined)
    ., 22.5%, ., ., 1.1%
- CC1CN(C)C(C)CC1NCc1ccc2c(c1)OCO2 (centres undefined)
    i, 5.3%, i, 1e-09, -1.7%
- CCCCCCn1c(N2CCN(c3cccc(Cl)c3)CC2)nc2c1c(=O)[nH]c(=O)n2C
    i, ?, i, 2.45e-08, -1.0%
- Cc1nc2cnc(Nc3ccccc3)nc2n(Cc2ccc(F)cc2)c1=O
    i, 3.2%, i, 1e-09, 14.3%
- COC(=O)[C@@H]1CCCN1C(=O)[C@@H](C)CO
    ., -3.1%[11.4 µM], ., ., 3.3%[11.5 µM]
- CN(C)S(=O)(=O)c1ccc(C(=O)OCc2ccc(C#N)cc2)cc1
    i, ?, i, 1e-09, 5.3%
- CC(=O)OCC(=O)c1ccc2ccn(C(C)=O)c2c1
    i, -6.1%, i, 1.3e-08, 4.4%
- Cc1noc(C)c1-c1nc(N2CCOCC2)c2ccccc2n1
    i, 6.1%, i, 4.5e-09, -4.7%
- CCN1CCCC1CNC(=O)Cn1ncc2c(=O)oc3ccc(C)cc3c21 (centres undefined)
    ., ?, ., ., -2.1%
- CC(=O)N1CCc2cc(S(=O)(=O)CCC(=O)N3CCN(c4ccccn4)CC3)ccc21
    i, 15.0%, i, 2.9e-09, 1.8%
- C=CCC1(O)C(=O)Nc2ccccc21 (centres undefined)
    i, 0.3%, i, 1.4e-09, -1.2%
- CN(C)c1nc(N)nc(CSc2nnnn2C)n1
    i, 2.8%, i, 1.78e-08, -1.7%
- COCCCNc1nc(=S)[nH]c2cc(OC)c(OC)cc12
    i, ?, i, 2.4e-09, 0.2%
- NC(=O)CCS(=O)(=O)CCN1CCCCC1
    i, 3.2%, i, 1e-09, -1.0%

Profiles as entered above. Values in the order: Resorufin autofl | TSHR ag | A488 autofl | A647 fluor | AID923
`O=C(CSc1nnc(CN2CCOCC2)n1-c1ccccc1)N1CCc2ccccc21` reads i | ? | i | 1.1e-09 | -1.7%
`Cc1nc2cnc(Nc3ccccc3)nc2n(Cc2ccc(F)cc2)c1=O` reads i | 3.2% | i | 1e-09 | 14.3%
`CN(C)S(=O)(=O)c1ccc(C(=O)OCc2ccc(C#N)cc2)cc1` reads i | ? | i | 1e-09 | 5.3%

The list goes on:
Order of values – Resorufin autofl, TSHR ag, A488 autofl, A647 fluor, AID923
- CCOc1ccc(NC(=O)Cn2nnc(-c3ccccc3F)n2)cc1
    i, 7.5%, i, 2.23e-08, 0.2%
- O=C(CSc1nc2ccccc2o1)NCC(=O)c1ccccc1
    i, 6.0%, i, 1e-09, 0.7%
- CCOC(=O)C1CCN(C2CC(=O)N(c3ccc(OCC)cc3)C2=O)CC1 (centres undefined)
    i, 17.5%, i, 1e-09, 0.0%
- N#Cc1ccc(CN2CC[C@@]3(CCCN(C(=O)c4ccncc4)C3)C2)cc1
    i, 0.2%, i, 1.8e-08, 3.2%
- CCC(CC)C1C(C#N)=C(N)Oc2n[nH]c(C)c21 (centres undefined)
    i, ., i, 7.23e-08, .
- CC(C)CSc1nc2ccccc2n1CC(N)=O
    ., 6.7%, ., ., -2.9%
- CCOCCc1nnc(NC(=O)CSc2ccccc2)s1
    i, 1.0%, i, 2.72e-08, 0.2%
- O=C(O)C1C2C=CC(C2)C1C(=O)N1CCc2ccccc21 (centres undefined)
    i, -4.7%, i, 5.62e-08, -2.3%
- COc1ccccc1OC(=O)c1ccc(SC)cc1OC
    i, 24.1%, i, 2.5e-09, -0.9%
- CC1CN(c2ccccc2)C(=O)CS1 (centres undefined)
    i, -3.9%, i, 2.58e-08, -1.9%
- O=C(CC1(O)C(=O)N(Cc2ccccc2Cl)c2ccccc21)c1ccco1 (centres undefined)
    i, -0.4%, i, 1.7e-09, -1.0%
- CC(=O)c1cccc(NC(=O)CSc2nnc(-c3ccc(S(=O)(=O)N4CCCC4)cc3)o2)c1
    i, 6.9%, i, 4.19e-08, 0.2%
- O=C1c2ccccc2NC(c2ccccc2)N1c1ccc(O)cc1 (centres undefined)
    ., 19.3%, ., ., 0.7%
- COc1ccccc1C(=O)NCCn1ccc2ccccc21
    i, 6.2%, i, 3.75e-08, 0.1%
- Cc1cccc(OCCOC(=O)C2CCN(S(=O)(=O)c3cccs3)CC2)c1
    i, ?, i, 1e-09, -1.3%
- COc1cc2c(cc1OC)C1=C(C#N)CC/C(=N\S(=O)(=O)c3ccccc3)N1CC2
    ., ?, ., ., 3.3%
- O=C(C1CC1)N1CCc2cc(Br)cc(S(=O)(=O)N3CCOCC3)c21
    i, 2.8%[11.4 µM], i, 1e-09, -1.0%
- O=C(c1ccco1)N1CCC[C@@]2(CCN(Cc3ccccc3)C2)C1
    i, 6.7%, i, 2.24e-08, -0.7%
- COc1cccc(Nc2ncc3ncc(=O)n(C4CC4)c3n2)c1
    i, ?, i, 2.31e-08, 12.4%
- COc1ccc(OCC(O)COc2ccc(OC)cc2)cc1
    i, 6.5%, i, 2.68e-08, 1.2%
- CN(C(=O)CCN1C(=O)C(C)(C)Nc2ccccc21)c1ccccc1
    i, 5.2%, i, 2.11e-08, -1.4%
- Cc1nc2cncnc2n(-c2ccccc2)c1=O
    i, -2.0%, i, 1.66e-08, 3.8%
- COc1ccc(OC)c(N=c2oc3c(OC)cccc3cc2C(=O)NCc2ccco2)c1
    i, -3.5%, i, 4.1e-09, 1.5%
- CCCN1CCN(CCCNC(=O)Cn2ncc3c4ccccc4n(C)c3c2=O)CC1
    ., 4.7%, ., ., -1.7%
- Fc1cccc(Cl)c1/C=N\N=C1c2ccccc2-c2ccccc21
    i, 4.9%[11.4 µM], i, 1e-09, 3.5%[11.5 µM]
- COc1cccc(-c2cncnc2NC2CCNCC2)c1
    i, 1.9%, i, 4.26e-08, 6.9%
- COC(=O)C1=C(C)NC(=O)CC1c1ccccc1F (centres undefined)
    ., -0.6%, ., ., 1.2%
- COC(=O)c1cccc(NC2CC(=O)N(c3ccc(OC)c(OC)c3)C2=O)c1 (centres undefined)
    i, -2.0%, i, 1e-08, -0.9%
- O=C(Nc1ccc(Cc2ccncc2)cc1)C1CC1
    i, -5.1%, i, 1.5e-09, -0.4%
- COc1nonc1NC(=O)CSc1nc2ccccc2[nH]1
    i, 5.9%, i, 1e-09, 0.7%
- CCN(CC)CCCNC(=O)c1cc(-c2cccc(Cl)c2)on1
    i, 12.1%, i, 5.3e-09, -1.5%
- CC1(C)CC(=O)C2=C(C1)Nc1ccccc1NC2c1ccc2c(c1)OCO2 (centres undefined)
    ., 0.7%, ., ., 0.0%
- CC1=CC(C)(C)N2C(=O)C3(C(C#N)=C(N)OC4=C3C(=O)CC(C)(C)C4)c3cccc1c32 (centres undefined)
    i, -4.7%, i, 8.8e-09, -1.3%
- Cc1nc2ncnn2c(C)c1Cc1ccc(Cl)cc1F
    ., 25.1µM*, ., ., -1.7%
- COc1cccc(C(=O)Nc2ccc(S(=O)(=O)Nc3onc(C)c3C)cc2)c1
    ., -4.9%, ., ., 2.4%
- Cc1ccccc1-n1c(SCc2c(C)noc2C)nnc1-c1c[nH]c2ccccc12
    i, -2.5%, i, 4.14e-08, -0.8%
- CSCCC(NC(=O)OC(C)(C)C)C(=O)NC(CC(C)C)C(N)=O (centres undefined)
    i, -5.8%, i, 2.39e-08, -0.1%
- CCCC12CN3CC(C)(CN(C1)C3c1ccc(OC)cc1)C2=O (centres undefined)
    i, 6.8%, i, 2.07e-08, -0.7%
- CN1CC(=O)N(CC(=O)NCCc2ccc(F)cc2)c2ccccc2C1=O
    i, 13.1%, i, 4e-09, 0.3%
- CC(C)=CCC/C(C)=C/COc1c2ccoc2cc2oc(=O)ccc12
    i, ?, i, 2e-08, .

Continued; the last three above are carried over.
Order of values – Resorufin autofl, TSHR ag, A488 autofl, A647 fluor, AID923
- CCCC12CN3CC(C)(CN(C1)C3c1ccc(OC)cc1)C2=O (centres undefined)
    i, 6.8%, i, 2.07e-08, -0.7%
- CN1CC(=O)N(CC(=O)NCCc2ccc(F)cc2)c2ccccc2C1=O
    i, 13.1%, i, 4e-09, 0.3%
- CC(C)=CCC/C(C)=C/COc1c2ccoc2cc2oc(=O)ccc12
    i, ?, i, 2e-08, .
- Cc1ccc(S(=O)(=O)NCCCCCC(=O)Nc2nccs2)cc1
    i, 13.7%, i, 5.03e-08, 1.1%
- CC1=CC(C)C2C(=O)N(CCCN(C)C)C(=O)C2C1 (centres undefined)
    i, -6.6%, i, 1.86e-08, 0.0%
- O=C(O)/C(=C\c1ccncc1)c1cccc2ccccc12
    i, -3.2%[11.4 µM], i, 1e-09, 5.6%[11.5 µM]
- CCCN(C(=O)c1cccs1)c1nnc(-c2ccncc2)s1
    i, ., i, 1e-09, -0.9%
- Cc1ccnc(Nc2nc3ccccc3o2)n1
    ., -6.6%, ., ., -0.7%
- O=C(Nc1ccccc1C(=O)OCC(=O)N1CCc2ccccc2C1)c1ccco1
    i, ?, i, 5.7e-09, 2.0%
- CC(C)C(=O)N1c2ccccc2NC2=C(C(=O)CCC2)C1c1ccc(N(C)C)cc1 (centres undefined)
    i, -6.0%, i, 1.1e-09, -0.1%
- COc1ccc2nc(Nc3ccc4c(c3)OCO4)sc2c1
    i, ?, i, 3.3e-08, -0.9%
- O=S(=O)(c1ccc(Oc2ncnc3scc(-c4ccccc4)c23)cc1)N1CCOCC1
    i, ?, i, 1.9e-09, 0.2%
- CN1C(=O)CC(N2CCC(c3nc4ccccc4[nH]3)CC2)C1=O (centres undefined)
    ., -2.4%, ., ., -1.2%
- C=CCn1c(COc2cccc(C)c2)nnc1SCC(=O)NC(=O)NCc1ccco1
    i, 10.1%, i, 1.1e-09, 1.7%
- CC1CCCCN1c1nnc(N)s1 (centres undefined)
    i, -11.1%, i, 2.34e-08, 0.5%
- O=C(NCc1cccnc1)C1CCN(S(=O)(=O)c2cccs2)CC1
    i, ., i, 1e-09, 0.6%
- CC1(C)Cc2cccc(OCC(=O)Nc3cccnc3)c2O1
    i, 5.9%, i, 1e-09, -0.9%
- COc1ccc(-c2cc(C(=O)N3CCOCC3)c3cc(C)ccc3n2)cc1
    i, 0.2%, i, 2.7e-09, 3.2%
- COC(=O)[C@@H]1[C@@H]2C[C@H]3c4[nH]c5ccccc5c4CCN3C[C@@H]2CC[C@@H]1OS(=O)(=O)O
    i, -1.5%[11.4 µM], i, 5.2e-08, 0.5%[11.5 µM]

From PubChem
